# Bioassay records (PubChem)
# AF4-AF9 inh: blocks AF4 peptide binding to human AF9. 350,000 compounds, 0.47% hits. AID 651704. P42568. inhibition, % at 10 µM. AlphaScreen, biotin-AF4 peptide binding to FLAG-AF9;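 active = every replicate reaching a set inhibition limit, whatever the replicate mean, cut at about 25% in these data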;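 note: 0% = plate neutral control median and 100% = total signal loss; the record names both 10 and 1 µM as test concentration; the first replicate is given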
# Target sequence (P42568 whole entry, looked up): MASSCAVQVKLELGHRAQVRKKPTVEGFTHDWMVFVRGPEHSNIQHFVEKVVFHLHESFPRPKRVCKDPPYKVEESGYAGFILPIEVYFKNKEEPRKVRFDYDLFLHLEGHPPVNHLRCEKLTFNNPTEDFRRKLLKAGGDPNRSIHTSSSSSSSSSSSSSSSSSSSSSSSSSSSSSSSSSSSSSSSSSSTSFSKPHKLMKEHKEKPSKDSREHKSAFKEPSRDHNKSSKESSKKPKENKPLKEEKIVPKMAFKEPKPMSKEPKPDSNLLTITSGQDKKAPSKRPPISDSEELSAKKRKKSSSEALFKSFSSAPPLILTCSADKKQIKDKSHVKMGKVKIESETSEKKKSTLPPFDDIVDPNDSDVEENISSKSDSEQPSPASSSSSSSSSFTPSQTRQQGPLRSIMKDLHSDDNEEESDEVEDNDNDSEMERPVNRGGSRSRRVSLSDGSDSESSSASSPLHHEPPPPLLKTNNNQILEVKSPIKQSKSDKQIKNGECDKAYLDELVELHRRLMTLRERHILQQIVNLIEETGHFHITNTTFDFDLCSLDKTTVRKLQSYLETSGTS
# Numbers without * were called inactive; & = joins results of further samples. Some of the compounds tested; rates above refer to the full screens.
SMILES	AF4-AF9 inh
COc1ccc(S(=O)(=O)Nc2ccc3c(c2)CC(=O)N([C@H](C)CO)C[C@@H](C)[C@@H](CN(C)S(C)(=O)=O)O3)cc1	-2.4
O=C(C[C@@H]1CC[C@H]2[C@@H](COC[C@@H](O)CN2C(=O)c2cnccn2)O1)NCc1ccc(F)cc1	-2.4
O=C(C[C@@H]1C=C[C@@H](NS(=O)(=O)c2ccc(F)cc2)[C@@H](CO)O1)NC1CCC1	-1.5
C[C@@H]1CN([C@@H](C)CO)C(=O)c2cc(NC(=O)Nc3ccc(C(F)(F)F)cc3)ccc2O[C@@H](C)CCCCO[C@@H]1CN(C)C(=O)Nc1cccc2ccccc12	-2.8
O=C(C[C@H]1C=C[C@H](NC(=O)Nc2cc(F)ccc2F)[C@@H](CO)O1)NCc1ccccn1	-4.4
CN1C[C@H](O)COC[C@@H]2O[C@H](CC(=O)NC3CCC3)CC[C@H]21	-1.6
O=C(C[C@H]1CC[C@@H](NC(=O)c2ccncc2)[C@H](CO)O1)Nc1ccc(-c2ccccc2)cc1	-0.9
CCOc1ccc(NS(=O)(=O)c2ccc(C(=O)N(C)CC(=O)Nc3ccccc3Br)cc2)cc1	-5.3
COC(=O)[C@]12CCCCC=C1N(Cc1ccc(Cl)cc1Cl)C(=O)[C@H](CC(=O)NCc1ccccc1)C2	0.8
CCS(=O)(=O)N1CC2(C1)[C@H](c1ccccc1)[C@@H](CO)N2C(=O)c1ccccc1	-3.6
CCCC#Cc1ccc2c(c1)O[C@H](CN(C)S(=O)(=O)c1cccc(F)c1)[C@@H](C)CN([C@H](C)CO)S2(=O)=O	1.1
O=C(C[C@@H]1C[C@@H]2c3cc(NC(=O)C4CCOCC4)ccc3O[C@@H]2[C@@H](CO)O1)NCc1cccnc1	5.5
CN(C)CCCNC(=O)C[C@@H]1CC[C@@H](NS(=O)(=O)c2ccc(F)cc2)[C@@H](CO)O1	-1.0
C[C@H](CO)N1C[C@H](C)[C@H](CN(C)Cc2ccc3c(c2)OCO3)Oc2ncc(C#CCN(C)C)cc2C1=O	1.3&1.4
CC(C)NC(=O)N[C@@H]1CC[C@H](CCNC(=O)C2CCC2)O[C@@H]1CO	-0.7
CS(=O)(=O)N1[C@@H](C#N)[C@@H](c2ccc(C#CC3CC3)cc2)[C@@H]1CO	-0.5
CCCC#Cc1ccc([C@H]2[C@H](CO)N3CCCCN(S(C)(=O)=O)C[C@@H]23)cc1	1.3
C[C@@H]1CN([C@H](C)CO)C(=O)c2cc(C3=CCCCC3)cnc2O[C@H]1CN(C)C(=O)Cc1ccccc1	1.4
N#Cc1ccc(OCC(=O)Nc2nc(-c3ccccn3)cs2)cc1	-4.9
C[C@@H]1CCCCO[C@H](CN(C)C(=O)C2CCCCC2)[C@@H](C)CN([C@H](C)CO)C(=O)c2cc(NC(=O)Nc3ccccc3)ccc2O1	-0.8
CC(=O)N1CCCCN2[C@H](CO)[C@H](c3ccc(C#Cc4ccccc4F)cc3)[C@@H]2C1	-1.7
Clc1ccc(-c2cccc3nccn23)cc1	-0.1
Cc1noc(C)c1S(=O)(=O)Nc1ccc2c(c1)C(=O)N([C@H](C)CO)C[C@H](C)[C@H](CN(C)CC1CCCCC1)OCCCC[C@H](C)O2	4.1
COCC(=O)Nc1ccc2c(c1)OC[C@H](C)N(C(=O)c1ccncc1)C[C@H](C)[C@@H](OC)CN(C)C2=O	-2.3
COCC(=O)N1CCCCN2[C@H](CO)[C@H](c3ccc(-c4ccc(OC)cc4)cc3)[C@H]2C1	-2.5

# More structures follow.
SMILES	AF4-AF9 inh
O=C1NC[C@@H](CCCCN2C[C@H](Cc3ccc(O)cc3)N(CCc3ccc(O)cc3)C(=O)C2=O)N(Cc2ccccc2)C1=O	3.1
N#C[C@@H]1[C@H](c2ccccc2-c2ccc(F)cc2)[C@H](CO)N1C(=O)Cc1cccnc1	-0.3
C[C@H](CO)N1C[C@H](C)[C@@H](CN(C)S(=O)(=O)c2ccc(Cl)cc2)Oc2c(NC(=O)NC3CCCCC3)cccc2C1=O	1.2
N#C[C@@H]1[C@@H](c2ccccc2C2=CCCCC2)[C@@H](CO)N1C(=O)C1CCOCC1	-1.5
C[C@H]1CN([C@@H](C)CO)S(=O)(=O)c2ccc(C#Cc3ccccc3)cc2O[C@H]1CN(C)CC1CC1	11
CN1C(=O)c2cc(NC(=O)c3ccccc3)ccc2OC[C@H]2O[C@H](CC(=O)O)CC[C@H]21	-0.4
CCNC(=O)C[C@@H]1CC[C@H]2[C@@H](COc3ccc(NS(=O)(=O)c4ccccc4C)cc3C(=O)N2C)O1	-1.4
Cc1noc(C)c1S(=O)(=O)Nc1ccc2c(c1)C(=O)N([C@@H](C)CO)C[C@H](C)[C@H](CN(C)C(=O)NC1CCCCC1)OCCCC[C@@H](C)O2	0.6
COc1cccc(-c2ccc([C@H]3[C@@H](CO)N4CCCCN(CC5CC5)C[C@@H]34)cc2)c1	3.8
C[C@H]1CN([C@@H](C)CO)C(=O)c2cccc(NS(C)(=O)=O)c2O[C@H]1CN(C)Cc1ccc(C(=O)O)cc1	3.7
CCCC#Cc1ccc([C@H]2[C@@H](C#N)N(C(=O)C3CC3)[C@@H]2CO)cc1	-17
CC(O)(c1cccc(F)c1)c1nc(/C=C/c2ccccc2)cs1 (centres undefined)	4.5
C[C@@H]1CN([C@H](C)CO)S(=O)(=O)c2ccc(C3=CCCC3)cc2O[C@H]1CN(C)C(=O)C1CCCCC1	4.8
C[C@H](CO)N1C[C@H](C)[C@H](CN(C)Cc2ccc(-c3ccccc3)cc2)Oc2ccc(NC(=O)Nc3ccc(C(F)(F)F)cc3)cc2C1=O	0.2
C[C@@H]1CN([C@@H](C)CO)C(=O)c2cc(NS(=O)(=O)c3ccc(Cl)cc3)ccc2O[C@@H](C)CCCCO[C@H]1CN(C)Cc1ccc(C(F)(F)F)cc1	-3.2
CC(C)CC#Cc1ccc2c(c1)O[C@@H](CN(C)C(=O)Cc1cccnc1)[C@@H](C)CN([C@H](C)CO)S2(=O)=O	9.4
CC1(Oc2ccc(Cl)cc2)CCN(Cc2csc3ccccc23)C1 (centres undefined)	0.1
COc1cccc(-c2cnc3c(NC=O)cc(-c4ccoc4)cn23)c1	2.6
Nc1c(N(Cc2ccco2)C(=O)COc2ccc(Cl)cc2)c(=O)[nH]c(=O)n1Cc1ccccc1	0.8
CC(C)Oc1ccc(F)cc1-c1cc(C(=O)NCc2ccc(C(F)(F)F)cc2)[nH]n1	-0.5
C/C=C/c1cnc2c(c1)C(=O)N([C@@H](C)CO)C[C@@H](C)[C@H](CN(C)S(=O)(=O)c1ccc(F)cc1)O2	0.6
CNC[C@@H]1Oc2ccc(NC(=O)Nc3c(C)noc3C)cc2C(=O)N([C@H](C)CO)C[C@H]1C	-2.7
CC(C)NC(=O)N(C)C[C@@H]1Oc2ncc(Br)cc2C(=O)N([C@H](C)CO)C[C@@H]1C	3.4
C[C@H]1CN([C@@H](C)CO)C(=O)c2cccc(NC(=O)c3cnccn3)c2O[C@H]1CN(C)S(C)(=O)=O	-3.3
CC(=O)N(C)C[C@@H]1Oc2cc(C#Cc3ccc(F)cc3)ccc2S(=O)(=O)N([C@@H](C)CO)C[C@H]1C	-7.0

# Filtered by structure, the entries above containing a COOH group (2)
SMILES	AF4-AF9 inh
CN1C(=O)c2cc(NC(=O)c3ccccc3)ccc2OC[C@H]2O[C@H](CC(=O)O)CC[C@H]21	-0.4
C[C@H]1CN([C@@H](C)CO)C(=O)c2cccc(NS(C)(=O)=O)c2O[C@H]1CN(C)Cc1ccc(C(=O)O)cc1	3.7

# The listing continues.
SMILES	AF4-AF9 inh
COc1ccc(S(=O)(=O)N2CCCCN3[C@H](C2)[C@H](c2ccc(C#CC4CC4)cc2)[C@@H]3CO)cc1	-6.2
C[C@H](CO)N1C[C@H](C)[C@H](CN(C)C(=O)Cc2cccnc2)Oc2ncc(-c3cncnc3)cc2C1=O	-6.1
CCOC(=O)[C@]12CCCC=C1N(Cc1ccc(Cl)cc1Cl)C(=O)[C@H](CC(=O)NCC1CCCCC1)C2	2.0
CO[C@H]1CN(C)C(=O)c2cc(NC(=O)c3cnccn3)ccc2OC[C@@H](C)NC[C@H]1C	-2.7
C[C@H](CO)N1C[C@H](C)[C@@H](CN(C)C(=O)Nc2ccc(F)cc2)Oc2ncc(Br)cc2C1=O	-1.4
COCOCCn1cc(CN2CCS(=O)(=O)N(Cc3ccc(-c4ccc(C)cc4)cc3)C(CC(C)C)C2=O)nn1 (centres undefined)	0.2
O=C(C[C@H]1CC[C@@H](NC(=O)Nc2ccccc2F)[C@H](CO)O1)NCc1ccc(Cl)cc1	0.2
CN(C)C(=O)c1cccc(-c2ccc([C@@H]3[C@@H](CO)N4C(=O)CN(C(=O)C5CCCC5)C[C@H]34)cc2)c1	7.3
COc1ccc2c3c([nH]c2c1)[C@H](CO)N(C(=O)Nc1ccc(F)cc1)CC31CCN(S(=O)(=O)c2cccc(C)c2)CC1	1.7
COCC(=O)N1CCN(C(=O)C(=O)c2cccc(C(F)(F)F)c2)CC1	-0.3
CCCNC(=O)N(C)C[C@H]1Oc2ncc(/C=C/c3ccccc3)cc2C(=O)N([C@H](C)CO)C[C@@H]1C	-11
Cc1cccc(S(=O)(=O)N[C@H]2CC[C@H](CCNC(=O)CCN3CCCCC3)O[C@@H]2CO)c1	-0.5
CC1(C(=O)Nc2ccc3[nH]ncc3c2)CCN1C(=O)C1(c2ccccc2)CC1 (centres undefined)	1.4
O=C(C1=C[C@@H](c2ccc3c(c2)OCO3)C[C@@H](OCc2ccc(CO)cc2)O1)N1CCN(Cc2ccccc2)CC1	3.2
CCCC#Cc1ccc([C@@H]2[C@@H](CO)N3C(=O)CN(S(=O)(=O)Cc4ccccc4)C[C@@H]23)cc1	1.9
O=C(c1ccco1)N1CCN(c2ncnc3scc(-c4ccc(Cl)cc4)c23)CC1	4.0
Cc1noc(C)c1NC(=O)N1C[C@@H](O)COC[C@@H]2O[C@@H](CC(=O)NCC3CCCCC3)CC[C@H]21	-0.6
COc1ccc(NC(=O)C2(C)CCN2C(=O)c2ccccc2CCc2ccccc2)cc1OC (centres undefined)	2.6
CCC(=O)N1CCCCN2[C@H](CO)[C@@H](c3ccc(-c4ccc(F)cc4)cc3)[C@@H]2C1	1.4
O=C1C2C=C(Br)[C@H](C[C@@H]2OCCCCCCO)[C@@]12CO2	-1.5
N#C[C@H]1N[C@@H](CO)[C@H]1c1ccc(C2=CCCC2)cc1	-1.4
Nc1ncnc2c1ncn2[C@@H]1O[C@H](C(=O)N2CCCN(Cc3ccccc3F)CC2)[C@@H](O)[C@H]1O	0.9
O=C(N[C@H]1CC[C@@H](CCn2cc(C3CC3)nn2)O[C@@H]1CO)c1cccnc1	-0.5
CC(C)C#Cc1ccc2c(c1)O[C@@H](CN(C)C(=O)C1CC1)[C@H](C)CN([C@@H](C)CO)S2(=O)=O	2.1
CC(=O)N(C)C[C@@H]1Oc2ncc(C#Cc3ccccc3)cc2C(=O)N([C@@H](C)CO)C[C@H]1C	-0.6

# Reprinted from the part before: five compounds; new compounds follow.
SMILES	AF4-AF9 inh
N#C[C@H]1N[C@@H](CO)[C@H]1c1ccc(C2=CCCC2)cc1	-1.4
Nc1ncnc2c1ncn2[C@@H]1O[C@H](C(=O)N2CCCN(Cc3ccccc3F)CC2)[C@@H](O)[C@H]1O	0.9
O=C(N[C@H]1CC[C@@H](CCn2cc(C3CC3)nn2)O[C@@H]1CO)c1cccnc1	-0.5
CC(C)C#Cc1ccc2c(c1)O[C@@H](CN(C)C(=O)C1CC1)[C@H](C)CN([C@@H](C)CO)S2(=O)=O	2.1
CC(=O)N(C)C[C@@H]1Oc2ncc(C#Cc3ccccc3)cc2C(=O)N([C@@H](C)CO)C[C@H]1C	-0.6
N#C[C@@H]1[C@@H](c2ccccc2)[C@H](CO)N1C(=O)c1ccccc1F	-1.6
C[C@H]1CCCCO[C@H](CN(C)S(=O)(=O)c2cn(C)cn2)[C@@H](C)CN([C@@H](C)CO)C(=O)c2cc(NS(=O)(=O)c3cccs3)ccc2O1	-1.1
COc1ccc(NC(=O)N2CC[C@@H]3[C@H]2c2cc(-c4cccc(C(=O)N(C)C)c4)ccc2N(C)[C@H]3CO)cc1	-1.2
COc1ccc2c3c(n(C)c2c1)[C@H](CO)N(C(=O)C1CCCC1)CC31CCN(C(=O)c2ccncc2)CC1	0.6
CCN(CC)C(=O)c1cccc(-c2csc(C(NC(C)=O)c3cccc(OC)c3)n2)c1 (centres undefined)	3.5
C[C@@H]1CN([C@@H](C)CO)C(=O)Cc2cc(NS(=O)(=O)c3ccc(Cl)cc3)ccc2O[C@H]1CN(C)C(=O)Nc1ccc(F)cc1	0.7
S=C(SSC(=S)N1CCOCC1)N1CCOCC1	6.8
CN(C)C(=O)c1cccc(-c2ccc([C@H]3[C@H]4CN(C(=O)C5CCC5)CC(=O)N4[C@H]3CO)cc2)c1	3.7
O=C(Cc1cccnc1)N[C@@H]1CC[C@H](CCn2cc(-c3ccccc3F)nn2)O[C@@H]1CO	-0.9
C/C=C/c1cnc2c(c1)C(=O)N([C@@H](C)CO)C[C@@H](C)[C@H](CN(C)Cc1ccncc1)O2	-5.7
CN1C(=O)c2cc(NC(=O)c3ccc(F)cc3)ccc2OC[C@H]2O[C@H](CC(=O)NC3CCC3)CC[C@H]21	-2.2
N#C[C@H]1[C@@H](c2ccc(-c3ccncc3)cc2)[C@@H](CO)N1C(=O)Cc1ccccc1	0.8
N#Cc1ccc(-c2ccc(C3[C@H]4CNC[C@@H]3N4C(=O)NC3CCCC3)cc2)cc1 (some centres undefined)	4.1
C[C@@H]1CN([C@@H](C)CO)C(=O)Cc2cc(NC(=O)Nc3cccc4ccccc34)ccc2O[C@H]1CN(C)S(C)(=O)=O	1.7
